Source: PubChem
Sa helicase inh = inhibitors of S. aureus replicative helicase, primary screen, biochemical, fluorescence unwinding readout; replicative DNA helicase (DnaC/DnaB), Staphylococcus aureus; purified S. aureus helicase, fluorescence unwinding assay; about half of the hits fall short of the stated cut; inhibition, %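 (tested at about 80 µM)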; actives 0.05% (n = 120,000);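 active = both duplicates at 50% or more, or one of them with a favoured structure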;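 note: 0% = mean of negative control wells and 100% = mean of positive control wells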
MgrA-DNA mod = S. aureus MgrA activity modulators, primary screen, biochemical, S. aureus Newman, fluorescence polarization. actives 0.13% (n = 84,000). MgrA-DNA binding. inhibition, %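 (about 10 µg/mL by stock and volumes)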;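 active = above 50% in either of two replicates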;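 note: 0% = protein plus DNA without compound and 100% = DNA alone without protein; higher means less MgrA bound to DNA so lower polarization; one replicate is shown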
Active calls of the source: *; · = not tested or not shown. Some of the compounds tested. The share of hits here may be higher or lower than overall.

Compound	Sa helicase inh	MgrA-DNA mod
NC(=O)NC(CC(=O)Nc1ccc(S(N)(=O)=O)cc1)c1ccccc1Cl (configuration not stated)	-8	·
N#CC1=C(c2ccc(Cl)cc2)COC1=O	-28	·
Cc1nnc(N2C(=O)C3C4C=CC(C4)C3C2=O)s1 (configuration not stated)	6	-0.2
CCOC(=O)c1c(C)oc2nc(COc3ncnc4c3cnn4-c3ccccc3)nc(N)c12	-4	·
CCCCC(C)(C)[C@H](O)/C=C/[C@H]1[C@H](O)CC(=O)[C@@H]1C/C=C\CCCC(=O)O	·	1.6
C/C(=C/C(=O)C(F)(F)F)N1CCc2ccccc2C1	-7	·
COc1ccc(-c2nnc(SC)n2-c2ccccc2)cc1	-4	·
O=C(Nc1ccc(S(=O)(=O)NC2=NCCCCC2)cc1)C1=NN(c2ccccc2)C(=O)CC1	5	·
CO[C@H]1C[C@H](O[C@H]2[C@H](C)[C@@H](OC3O[C@H](C)C[C@H](N(C)C)[C@H]3O)[C@@H](C)C[C@]3(CO3)C(=O)[C@H](C)[C@@H](O)[C@@H](C)[C@@H](C)OC(=O)[C@@H]2C)O[C@@H](C)[C@@H]1O (some centres not stated)	·	2.4
O=c1[nH]nc(Sc2ncn[nH]2)c(=O)[nH]1	12	·
CCOc1ccc(S(=O)(=O)Nc2cccc(-c3cn4cccc(C)c4n3)c2)cc1	4	-1.1
O=C(CCSc1nnc(-c2ccncc2)o1)Nc1ccccc1	5	-1.5
CCCCCC(=O)Nc1nnc(CCOCCOCCc2nnc(NC(=O)CCCCC)s2)s1	·	-1.1
Clc1ccc(SCCc2nc3ccccc3o2)cc1	1	1.0
CC(C)C1N(c2ccccc2)CCN1c1ccccc1	10	-0.4
CCN(CC)C(=O)C(N)Cc1ccccc1 (configuration not stated)	1	·
O=C(NCc1cccnc1)c1cccc(C(=O)NCc2cccnc2)c1	1	-0.1
C#C[C@]1(O)CC[C@H]2[C@@H]3CCc4cc(OC)ccc4[C@H]3CC[C@@]21C	·	-1.1
CCOC(=O)c1nn(-c2ccccc2)c(=O)c2c(N)c(C#N)ccc12	-19	·
Cc1ccc(S(=O)CCOc2ccc(Cl)cc2Cl)cc1 (configuration not stated)	·	0.9
CCOc1ccccc1OCCCC(=O)O	-23	-2.0
O=C1CC(Nc2ccccc2)C(=O)N1Cc1ccccc1 (configuration not stated)	-15	·
CC(C)n1c(SCC(=O)NC2CC2)nnc1-c1ccco1	-2	-2.8
Cc1oc(CC(C)C)cc1C(N)=O	-3	2.4
CN(C)C(=S)c1nc2ccccc2[nH]1	21	·
CCOC(=O)C1Nc2c(ccc(C(=O)O)c2C)C2C=CCC12 (configuration not stated)	-12	·
COC(=O)c1cc(COC(=O)/C=C/c2ccc(F)cc2)oc1C	-5	·
O=C(N/N=C/c1ccc(-n2ccnc2)cc1)c1ccc2c(=O)n3c(nc2c1)CCC3	-7	·
Cc1ccc2c(c1)N(CC(=O)NC(C)C)C(=O)c1cccnc1O2	6	·
O=C(O)/C=C/c1ccc2c(-c3ccccc3)onc2c1	7	-2.0

Reprinted from the part before: six entries; new compounds follow.
Compound	Sa helicase inh	MgrA-DNA mod
CN(C)C(=S)c1nc2ccccc2[nH]1	21	·
CCOC(=O)C1Nc2c(ccc(C(=O)O)c2C)C2C=CCC12 (configuration not stated)	-12	·
COC(=O)c1cc(COC(=O)/C=C/c2ccc(F)cc2)oc1C	-5	·
O=C(N/N=C/c1ccc(-n2ccnc2)cc1)c1ccc2c(=O)n3c(nc2c1)CCC3	-7	·
Cc1ccc2c(c1)N(CC(=O)NC(C)C)C(=O)c1cccnc1O2	6	·
O=C(O)/C=C/c1ccc2c(-c3ccccc3)onc2c1	7	-2.0
CCN1CCC(NC2c3ccccc3-c3ccccc32)CC1	27	-0.6
O=c1/c(=C\c2ccccc2Sc2ccc(Cl)cc2)sc2nc3ccccc3n12	·	0.3
Cc1cccc(NCC(O)Cn2cnc3c2c(=O)n(C)c(=O)n3C)c1 (configuration not stated)	5	·
CCC(CO)N=CC1=C(O)CC(c2ccccc2)CC1=O (configuration not stated)	18	-0.9
COC(=O)CCC(=O)c1cc2cc(Br)ccc2o1	10	-1.2
CCOC(=O)c1ccc(NC(=O)NC2OC(CO)C(O)C(O)C2O)cc1 (configuration not stated)	-16	0.7
Cc1ccc(C)c2[nH]c(=O)c(CN(Cc3ccco3)Cc3nnnn3C(C)(C)C)cc12	8	-1.9
OC(COCCC12CC3CC(CC(C3)C1)C2)CN1CCCCC1 (configuration not stated)	-7	·
COc1ccc(/C=C/C(=O)NC2CC2)cc1	-12	1.3
COc1ccc(Nc2[nH]nc(NC(=O)c3ccc(S(=O)(=O)N(C)C)cc3)c2C#N)cc1	6	·
CC(OC(=O)/C=C/c1ccco1)C(=O)Nc1cccc(C(F)(F)F)c1 (configuration not stated)	-6	·
S=C(NCc1ccccc1)c1ccccn1	-6	-1.0
Cc1cc(NCc2ccccc2)n2ncnc2n1	1	-0.5
O=C(O)c1cc(-c2ccccc2)nc2c1cnn2Cc1ccncc1	-13	·
O=C(COC(=O)c1cccc(S(=O)(=O)N2CCCC2)c1)Nc1cccc(F)c1	0	·
O=C(Nc1ccc(-c2csnn2)cc1)c1ccc(Cl)cc1	·	-0.7
O=C(O)C1CCCN1C(=O)C12CC3CCC(CC(C3)C1)C2 (configuration not stated)	-25	-0.7
CCOC(=O)C1CCN(c2ncnc3c(C)csc23)CC1	·	-0.3
O=C(O)C1(C2CCC3OCOC3C2)SCCCS1 (configuration not stated)	11	-3.5
COc1ccc(S(=O)(=O)N2C3CCC2CC(NC(=O)C2CC2)C3)cc1 (configuration not stated)	6	0.0
C#CCSc1n[nH]c(C(C)(C)C)n1	-6	·
CCN(C(=O)CSc1ncccn1)c1ccccc1	19	0.5
O=C(CCCc1ccccc1)c1ccc2c(c1)OCCO2	9	-1.2
CSc1nnc(C2CCCN(C(=O)N(c3ccccc3)c3ccccc3)C2)n1C (configuration not stated)	6	-4.0
CC1CCCC(C)N1C(=O)Nc1ccc(Cl)c(Cl)c1 (configuration not stated)	9	-9.2
O=C(Cc1ccc(Cl)cc1)Nc1ccccn1	6	-0.6
O=C(OC1CCCCC1=O)C1CCN(S(=O)(=O)c2cccs2)CC1 (configuration not stated)	-8	·
O=C(CCSc1ccc(Cl)cc1)Nc1ccc(F)c(F)c1F	6	0.1
CC1(C)CN(c2cccc(C#N)c2)C1=O	·	-1.7
CC1C(c2ccccc2)N(C)C(c2ccccc2)CC1(O)c1ccc(F)cc1 (configuration not stated)	·	-4.2

At a glance, some entries already given.
Compound	Sa helicase inh	MgrA-DNA mod
CC1(C)CN(c2cccc(C#N)c2)C1=O	·	-1.7
CC1C(c2ccccc2)N(C)C(c2ccccc2)CC1(O)c1ccc(F)cc1 (configuration not stated)	·	-4.2

(more compounds)
Compound	Sa helicase inh	MgrA-DNA mod
Cc1ccccc1OCC(=O)NC1CCCCC1NC(=O)COc1ccccc1C (configuration not stated)	20	0.7
O=C(c1ccc2c(Cl)c3c(nc2c1)CCC3)N1CCCCC1	-2	·
CN1CCN(CCNC(=O)c2cc3c(=O)n(C)c4ccccc4c3n2C)CC1	4	-1.1
CCc1ccc(N2CC(C(=O)OCC(=O)Nc3ccccc3)CC2=O)cc1 (configuration not stated)	11	·
CC(Oc1ccc(C#N)cc1)C(=O)NN (configuration not stated)	-1	·
CC1CN(C(=O)c2ccccc2Nc2ccc(SC(F)F)cc2)CC(C)O1 (configuration not stated)	19	·
COc1ccccc1-n1c(C23CC4CC(CC(C4)C2)C3)n[nH]c1=S	2	1.1
Cc1nsc(Nc2ccccc2)c1C#N	18	·
CC(C)(C)c1ccc(-c2nnc(SCc3cccc(C(N)=O)c3)n2-c2ccc3c(c2)OCO3)cc1	·	1.2
COc1ccc(-n2nc(C(=O)NCc3ccco3)c3c4ccccc4n(C)c3c2=O)cc1	-33	·
Cc1nnsc1C(=O)N1CCc2[nH]c3ccc(F)cc3c2C1	·	1.1
CCOC(=S)SCc1c(C)c(C)c(C)c(C)c1C	·	1.4
O=[N+]([O-])c1cccc(-c2csc(=Nc3ccccc3)n2-c2ccccc2)c1	·	0.2
CCOc1cccc2cc(C(N)=O)/c(=N/c3sc4c(c3C(N)=O)CCCC4)oc12	·	3.6
COc1ccc(C)cc1-n1nnnc1SCc1nc2sc3c(c2c(=O)[nH]1)CCC3	-17	·
CC1=CC(C)=NS(=O)(=O)N1	-5	·
CC1CC(C)CN(CCN)C1 (configuration not stated)	13	-1.1
CCCCN1C(=O)c2ccc(C(=O)C(C#N)c3nc4ccccc4n3C)cc2C1=O (configuration not stated)	15	·
Cc1ccc(-n2c(N)c(C(N)=O)sc2=S)cc1C	2	·
CCCN(C(=O)c1ccccc1N)c1c(C)n(C)n(-c2ccccc2)c1=O	5	-1.1
CC1=CC2(CCC(C)CC2C(=O)NCc2ccc(Cl)cc2)OC1=O (configuration not stated)	12	-4.0
C=CCNC(=O)CN1C(=O)C(CC)Oc2ccccc21 (configuration not stated)	25	·
Cc1ccc(-c2nnc(Nc3ccccc3)c3ccccc23)cc1S(=O)(=O)N1CCCCC1	-4	-1.6
Cc1nc2cc(-c3ccc(Cl)cc3)nn2c(C)c1CCC(=O)NO	10	·
Cc1ccc(/C=N/N=C2/NC(=O)CS2)o1	27	·
O=C(NC(C(=O)c1ccccc1)n1cccnc1=O)c1ccccc1 (configuration not stated)	5	·
C=CCn1c(=O)sc2cc(NC(C)=O)ccc21	0	-3.2
COC(=O)c1cc(-c2ccc(N)cc2)nc2ccc(C)cc12	-16	3.8
COc1ccc(CC(=O)NC(C)C(c2cccs2)N2CCN(C)CC2)cc1OC (configuration not stated)	14	·
Cc1ccc(S(=O)(=O)C2(C(=O)O)CC2)cc1C	5	-5.7
CC(=O)OC(C#CCN1CCOCC1)c1ccccc1 (configuration not stated)	4	·
CC(=O)Nc1ccc(S(=O)(=O)C(C#N)c2nc3ccccc3nc2NCCN2CCOCC2)cc1 (configuration not stated)	-12	·
O=C(/C=C/c1ccco1)NC(=S)NC12CC3CC(CC(C3)C1)C2	8	0.8
C=C1CCC(OC(C)=O)C2(C)CCC3C(C)C(=O)OC3C12O (configuration not stated)	23	·
Cc1cc(C)nc(NS(=O)(=O)c2ccc(NC(=O)C3CC(=O)N(c4ccccc4)C3)cc2)n1 (configuration not stated)	3	·
Cc1ccc(Cl)cc1NC(=O)CC(C(=O)O)N1CCNCC1 (configuration not stated)	-18	·
CCOC(=O)N1CCN(CC(=O)c2ccc(O)c(C)c2O)CC1	-1	·
CC(C)Oc1ccc(C(=O)N2CCCC2C(=O)O)cc1 (configuration not stated)	11	-3.8
COc1ccc(OC(=O)Nc2ccccc2)cc1	7	1.6
CCC1CCc2[nH]c(=S)c(C#N)c(C(F)(F)F)c2C1 (configuration not stated)	16	5.6
COc1ccc(C(=O)NC(C)c2nc3ccccc3[nH]2)cc1OC (configuration not stated)	-16	·
CCOC(=O)c1c(CSc2n[nH]c(=O)n2CC)nc2ccccc2c1C	-4	·
CCOC(=O)c1c(C)n(-c2ccccc2)c2c1cc(OC(=O)c1cccc(C)c1)c1ccccc12	·	1.4
Cc1ccc(N=Cc2c(O)n(C)c3ccccc23)cc1	-20	·
CCN(C1CCCCC1)S(=O)(=O)c1ccc(S(=O)(=O)NC2CC2)cc1	1	0.0
COC(=O)c1ccc(COC(=O)C2COc3ccccc3O2)cc1 (configuration not stated)	6	·
CCc1cccc(CC)c1N=C=S	4	·
CCc1ccc(NC(=S)N(CCN2CCOCC2)Cc2ccccc2F)cc1	15	0.7
O=C(Cc1cccc(F)c1)NCC(c1cccs1)N1CCOCC1 (configuration not stated)	-16	·
CCCCN(C)C(=O)c1cc(-c2ccc(OC)cc2)n[nH]1	-10	·
CCN(CC)C(=O)CSc1cc(=O)n(C)c2cc(Cl)ccc12	13	0.8
CCCn1cnc(N)n1	3	-5.4
CC(=O)OCC1OC(OC(C)(C)C)C(OC(C)=O)C(OC(C)=O)C1OC(C)=O (configuration not stated)	16	-3.2
COc1cc(OC)cc(C(=O)N2CCN=C2c2ccccc2)c1	0	-0.5
Cc1ccc(N2C(=O)c3ccc(C(=O)N(CCO)c4ccccc4)cc3C2=O)cc1C	10	5.2
CCCCN1C(=O)C(NC(C)=O)c2cc(Cl)ccc21 (configuration not stated)	-8	·
Cc1c(N(C)S(=O)(=O)c2cccc(C(=O)Nc3ccccc3N3CCOCC3)c2)c(=O)n(-c2ccccc2)n1C	3	·
O=C(CSc1oc(-c2cccs2)nc1S(=O)(=O)c1ccccc1)c1ccccc1	6	0.2
Cc1nc2ccc3nc(NC(=O)c4ccccc4C)sc3c2s1	-1	-0.4
CC(/C=C/c1ccccc1)=N\n1c(C)cc(C)c(C#N)c1=O	8	3.6

New compounds follow.
Compound	Sa helicase inh	MgrA-DNA mod
N#Cc1ccc(Oc2ncc(C(F)(F)F)cc2Cl)cc1	·	-1.2
COc1ccccc1C1CC(=O)NC(C)=C1C(=O)OC1CCCC1 (configuration not stated)	8	1.5
O=C(Nc1ccc(N2CCCCC2)cc1)c1ccccn1	-9	·
CN1C(=O)c2ccccc2C(C(=O)NCc2ccc(F)cc2)C1c1c[nH]c2ccccc12 (configuration not stated)	12	1.0
